# D2 ag = human D2 receptor agonism in beta-arrestin assay. P14416. DiscoveRx PathHunter D2 beta-arrestin, luminescence, 90 min; 100% = 57 uM dopamine signal. activation, % (test concentration not listed). hit rate 0.084% among 360,000. AID 624465; in the data active = activation above about 40%; inconclusive = about 15% to 40%; inactive = below about 15%; also: compound concentration not given in the record; the text of the record calls up to 30% inactive
# Target sequence (P14416 whole entry, looked up): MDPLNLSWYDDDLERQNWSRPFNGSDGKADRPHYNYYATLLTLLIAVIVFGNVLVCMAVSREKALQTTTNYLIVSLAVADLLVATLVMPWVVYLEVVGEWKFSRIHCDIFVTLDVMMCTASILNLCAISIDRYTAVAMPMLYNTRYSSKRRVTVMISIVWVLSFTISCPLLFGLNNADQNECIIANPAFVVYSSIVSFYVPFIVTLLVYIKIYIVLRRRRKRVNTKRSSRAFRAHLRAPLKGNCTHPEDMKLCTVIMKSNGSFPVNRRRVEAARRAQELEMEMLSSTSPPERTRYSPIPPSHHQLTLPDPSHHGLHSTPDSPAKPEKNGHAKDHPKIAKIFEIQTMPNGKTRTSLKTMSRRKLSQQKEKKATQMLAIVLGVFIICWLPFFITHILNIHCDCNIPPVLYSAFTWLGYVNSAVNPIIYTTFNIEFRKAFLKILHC
#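 Agonist mode: compounds alone added to overnight-plated D2 PathHunter cells for 90 min at 37 C, with 57 uM final dopamine (EC100) defining full response. Beta-arrestin recruitment detected by chemiluminescent reagent, read after 1 h at ambient temperature.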
# TRPML1 inh = inhibitors of human TRPML1 channel | Q9GZU1 | activity change, negative = inhibition, % (concentration not given with the values) | TRPML1-inducible cells, Ca2+ dye fluorescence, FDSS; active compounds read low; inhibition of EC80 agonist-evoked calcium signal | hit rate 0.02% among 390,000 | AID 624415; in the data active means activity change below about -50%; inconclusive means about -30% to -50%; inactive means above about -30%;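 also: stimulus is agonist 54-4 at its EC80 concentration; % is scaled to controls: 0 for no effect and ±100 for the full control effect; the text of the record puts the active cut at -80%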
# Target sequence (Q9GZU1 whole entry, looked up): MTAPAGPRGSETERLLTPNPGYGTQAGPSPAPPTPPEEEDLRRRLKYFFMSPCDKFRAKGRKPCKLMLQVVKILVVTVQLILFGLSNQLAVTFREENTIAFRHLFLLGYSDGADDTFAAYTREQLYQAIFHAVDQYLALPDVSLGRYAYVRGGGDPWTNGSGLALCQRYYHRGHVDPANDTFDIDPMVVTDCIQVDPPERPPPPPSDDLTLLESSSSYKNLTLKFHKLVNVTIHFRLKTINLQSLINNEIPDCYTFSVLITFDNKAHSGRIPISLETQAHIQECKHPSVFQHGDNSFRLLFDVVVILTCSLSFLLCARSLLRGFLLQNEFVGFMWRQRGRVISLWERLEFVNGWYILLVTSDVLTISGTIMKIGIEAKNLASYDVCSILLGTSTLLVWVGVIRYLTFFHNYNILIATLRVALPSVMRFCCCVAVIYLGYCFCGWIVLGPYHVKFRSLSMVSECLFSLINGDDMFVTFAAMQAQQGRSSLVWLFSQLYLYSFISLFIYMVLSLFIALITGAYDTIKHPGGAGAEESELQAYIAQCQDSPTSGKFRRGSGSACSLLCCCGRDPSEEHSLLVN
#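 Tet-induced TRPML1-DL cells loaded with Ca8 no-wash calcium dye were read kinetically on FDSS. Compound addition was followed by EC80 agonist 54-4 (4 uM final); inhibition was read over 110 s.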
# D2 PAM = potentiates the human D2 dopamine receptor allosterically | P14416 | DiscoveRx D2 beta-arrestin cells, luminescence, 90 min; 100% = 57 uM dopamine signal | potentiation, % (concentration not given with the values) | hit rate 0.23% among 360,000 | AID 624464; active = potentiation of 50% or more; inconclusive = 30% to 50%; inactive = 30% or less;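 also: compound concentration not given in the record; tested on top of an EC20 dose of dopamine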
#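 PathHunter D2 cells, attached overnight at 37 deg C, received compound in DMSO plus dopamine at EC20 (50 nM final) for 90 min at 37 deg C. Beta-arrestin recruitment was read as luminescence after 1 h with detection reagent at ambient temperature.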
# PINK1 expr mod = PINK1 expression modulation; PINK1 immunofluorescence, high-content cytometry, 24 h; Potency, µM (series often up to 76.6 µM), without a hit: top-dose activation (PINK1 increase), most hits filed as activators; hit rate 0.2% among 410,000; AID 624263; active = well fitted activation curve with a large enough effect; inconclusive = small, poorly fitted or top-dose-only effect; inactive = flat fitted curve, though single readings scatter; cell line not stated here;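 also: potency is read from the fitted curve at half-maximal effect; % of control where 0% means no effect; nearly all actives have a fitted effect of over 65% in size; a mitochondrial uncoupler was the plate control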
#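 Stable cell line, 250 cells/well, 12 h attachment; compounds pinned at 5 concentrations, 24 h; CCCP control. Fixed with nuclear dye, primary antibodies 12 h at 10 degrees C, secondary plus cell stain; laser-scanning cytometer read.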
# TRPML1 agonist = agonists of human TRPML1 channel. TRPML1-expressing cells, Ca2+ dye fluorescence, FDSS; host cell line not named in the record; reference of the full effect not given here. activation, % (concentration not given with the values). hit rate 0.12% among 410,000; in the data active = activation above about 50%; inconclusive = about 30% to 50%; inactive = below about 30%; also: 0% is about no effect; the text of the record puts the active cut at 80%
#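 TRPML1-DL cells, Tet-induced overnight (~16 h, 37 degrees C), loaded 45-90 min at room temperature with Ca8 no-wash calcium dye plus quencher. FDSS fluorescence: 10 s baseline, compound pin-transfer, 110 s agonist read, then EC80 54-4 (4uM final) and 110 s antagonist read.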
# Six1-Eya2 inh = blocks human Six1 binding to Eya2; Q15475+O00167; AlphaScreen GST-Six1/His-Eya2 binding, biochemical; active compounds read low; control for the full effect not named in the record; activity change, % (concentration not given with the values); hit rate 0.56% among 360,000; AID 651725; in the data active = activity change below about -65%; inconclusive = about -30% to -65%; inactive = above about -30%; also: % is scaled to controls: 0 for no effect and ±100 for the full control effect
#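 GST-Six1 + His-Eya2 (5X stock: 250/500 nM); Tris pH 8.0, 300 mM NaCl, 0.05% BSA, 0.02% Tween 20; GSH donor/Ni acceptor beads; 1 h 37 °C dark; AlphaScreen readout.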
# Numbers without * were called inactive; ? = inconclusive; · = no result given; & = joins results of further samples; [ ] = dose if it differs, or a comment.
SMILES,D2 ag,TRPML1 inh,D2 PAM,PINK1 expr mod,TRPML1 agonist,Six1-Eya2 inh
CCOc1ccc(C2NCCc3cc(OC)c(OC)cc32)cc1OC (configuration not stated),-2.8,3,-10,-0.9%,-0.3,20
Cc1cccc(NC(=O)C2CCCN(S(=O)(=O)c3cccc4nonc34)C2)c1C (configuration not stated),·,28,·,-0.2%,-0.8,·
O=C(N/N=C/c1c[nH]c2ccccc12)c1ccn(Cc2ccc(Cl)cc2)n1,-0.8,-6,-16,5.0%,-0.2,-5
O=C1c2[nH]nc(-c3ccccc3O)c2C(c2ccccc2F)N1Cc1ccco1 (configuration not stated),0.2,1,-5,-2.2%,0.8,-19
Cc1cc(C)n2nc(C(=O)N/N=C/c3cccc(Cl)c3)nc2n1,1.9,26,-1,2.1%,0.1,-21
Cc1noc(C)c1COc1ccc(C(=O)NCCc2ccccn2)cc1,-6.2,-1,-2,8.8%,-0.2,-5
N#C/C(=C\c1ccc(Br)cc1)c1nc(-c2cc3cc(Br)ccc3oc2=O)cs1,·,8,·,1.5%,-0.9,·
CNC(=S)N1N=C(c2cccs2)CC1c1ccc(OC)cc1 (configuration not stated),-0.6,0,11,2.3%,2.5,-2
COc1ccc(S(=O)(=O)N2CCC(C(=O)NCCCn3ccnc3)CC2)cc1C,-2.5,-2,2,4.7%,-0.2,-2
O=C(COC(=O)c1cc2ccccc2o1)NCc1ccco1,-5.7,-3,-5,-0.5%,-0.5,-4
COc1ccc(Cl)cc1C=CC=Nc1ccc(S(N)(=O)=O)cc1,-2.4,10,-24,?,0.0,-3
Cn1c(=O)c2c(nc(SCC(=O)Nc3ccc(F)c(F)c3)n2Cc2ccccc2F)n(C)c1=O,·,-25,·,3.8%,2.8,·
CC(C)[C@H](NC(=O)N1CCn2c1nc1ccccc12)C(=O)NCc1ccco1,-0.5,-1,0,-0.2%,-0.8,-1
Cc1cccc(CNC(=O)c2ccc(Cn3c(SCc4ccccc4)nc4cccnc43)cc2)c1,·,22,·,8.8%,1.8,·
O=c1c2ccccc2n(Cc2ccccc2F)c(=O)n1Cc1ccccc1F,-1.2,0,6,22%,2.7,9
CCC(=O)N1CCCC(C(=O)NCc2ccc(C(C)C)cc2)CC1 (configuration not stated),-3.2,·,-4,2.2%,-0.8,-3
CCN1CCN(CCc2nc3cc([N+](=O)[O-])ccc3n2C)CC1,-5.6,6,-11,-0.6%,0.2,-2
Nc1cc(S(=O)(=O)Nc2ccccc2Cl)ccc1N1CCCCC1,3.9,-7,-5,3.2%,0.8,-10
CN(C)S(=O)(=O)c1ccc(C(=O)OCC(=O)Nc2cccnc2Cl)cc1,-2.8,23,-4,1.5%,0.0,-2
COCCN1Cc2cccc(C(=O)NC(C)CCc3ccco3)c2C1=O (configuration not stated),3.3,-20,2,-0.3%,-0.3,-2

# Molecules listed so far that contain an NH in an aromatic ring:
SMILES,D2 ag,TRPML1 inh,D2 PAM,PINK1 expr mod,TRPML1 agonist,Six1-Eya2 inh
O=C(N/N=C/c1c[nH]c2ccccc12)c1ccn(Cc2ccc(Cl)cc2)n1,-0.8,-6,-16,5.0%,-0.2,-5
O=C1c2[nH]nc(-c3ccccc3O)c2C(c2ccccc2F)N1Cc1ccco1 (configuration not stated),0.2,1,-5,-2.2%,0.8,-19

# Next entries:
SMILES,D2 ag,TRPML1 inh,D2 PAM,PINK1 expr mod,TRPML1 agonist,Six1-Eya2 inh
Cc1ccc(S(=O)(=O)NC2=NCN(Cc3ccccc3)CN2)cc1,-1.8,-10,-10,0.0%,-0.5,10
COc1ccc(OC)c(NC(=O)CSc2sc3c(O)cc(=O)[nH]c3c2C#N)c1,-2.0,-6,-3,0.4%,0.0,-12
CN1C(C(=O)Nc2ccc(F)cc2F)=CC(c2cccs2)=NS1(=O)=O,-1.8,19&-10,-2,6.2%&-1.0%,3.4&0.1,-9
O=C(CCc1ccccc1)NNC(=O)c1ccccc1Br,0.5,14,-9,-0.2%,0.1,1
C[C@@H](O)CNC(=O)c1[nH]cnc1C(=O)N[C@H](C)c1ccccc1,-2.5,-2,-1,-0.1%,-0.2,-8
CN(C(=O)C1Cc2c(-c3ccccc3Oc3ccccc3)ccnc2O1)c1ccccc1 (configuration not stated),-4.1,·,-16,8.2%,0.3,-4
O=C(CCNC(=O)C1CCN(S(=O)(=O)c2ccc(F)cc2)CC1)NCc1ccc(F)cc1,4.2,-19,3,1.3%,0.6,2
CC1CCCC(NC(=O)COC(=O)COc2cccc(F)c2)C1C (configuration not stated),0.3,-2,-5,0.7%,-1.3,6
COc1ccccc1-n1nc(C)cc1N,-1.5,23,-1,-0.7%,0.6,1
CCCn1c(SCC(=O)NCc2ccc3c(c2)OCO3)n[nH]c1=O,-6.3,-12,-2,0.8%,0.1,5
FC(F)(F)c1ccncc1-c1nnc(C2CCCCC2)o1,1.6,0,-6,2.9%,1.1,13
CC(C)CC1C(=O)N(Cc2cn(CCC3OCCO3)nn2)CCS(=O)(=O)N1Cc1ccc(-c2ccc(Cl)c(Cl)c2)cc1 (configuration not stated),-0.4,3,-1,0.9%,0.2,-7
COc1ccc(/C=C/C(=O)NC2CCCCC2C)cc1 (configuration not stated),-0.1,5,-4,2.1%,-0.7,0
CC1Cc2ccccc2N1C(=O)CSc1nc2cc3c(cc2cc1C#N)OCO3 (configuration not stated),-0.5,-6,-10,1.7%,2.2,2
O=C(CCCO)NNc1c2ccccc2nc2ccccc12,2.5,24,-9,-0.4%,0.4,1
COc1ccccc1Nc1c2c(nc3ccc(NC(=O)/C=C/c4cc(OC)c(OC)c(OC)c4)cc13)CCCC2,·,-23,·,-1.1%,-0.8,·
Cc1ccc(/C=C/C(=O)O)cc1S(=O)(=O)Nc1ccc2c(c1)OCO2,1.2,4,-7,0.0%,-0.6,0
CN(C)S(=O)(=O)c1ccc(N2CCOCC2)c(C(=O)O)c1,-3.2,0,-3,0.2%,-0.5,6
Cc1oc2c(C)c3oc(=O)c(CCC(=O)N[C@@H](CC(C)C)C(=O)O)c(C)c3cc2c1C,4.0,-3,0,-0.1%,2.4,-7
O=C(CN1CCOCC1)N1N=C(c2cccs2)CC1c1cccs1 (configuration not stated),-2.3,8,-7,2.3%,0.0,0
O=C(C1CCCN(S(=O)(=O)c2cnc[nH]2)C1)N1CCN(Cc2ccccc2)CC1 (configuration not stated),-0.3,0,-9,-0.7%,0.2,8
COc1ccc(CN(C)C(=O)c2ccc(NS(=O)(=O)c3ccccc3)cc2)c(OC)c1,-1.7,5,-1,0.3%,2.2,-10
O=S1(=O)NC(=NC2CCCCCC2)c2ccccc21,-4.8,-10,-20,2.3%[38.3 µM],0.2,4
Cc1sc2ncnc(OCC(=O)NCc3cccs3)c2c1C,-1.0,1,-1,6.3%,0.2,10
Nc1ccc(S(=O)(=O)c2ccc(N3CCOCC3)c(N)c2)cc1,-8.2,-9,-15,0.9%,0.0,11
CCOC(=O)c1cc(-c2ccc(F)cc2)n(CC(=O)N2CCCC2)c1C,-2.3,-3,19,1.3%,-0.7,-11
O=C(NCc1cccnc1)c1cc2nc(-c3ccc4c(c3)OCO4)cc(C(F)(F)F)n2n1,-2.0,-11,-7,3.9%,-0.4,-3
CC1CCCN(C(=O)c2ccc3ncsc3c2)C1 (configuration not stated),-3.4,0,0,2.8%,1.2,7
COc1ccccc1NC(=O)N1CCN(C(=O)Nc2ccccc2OC)CC1,-0.7,·,-1,0.0%,·,2
CCOC(=O)[C@]12CCCC=C1N(Cc1ccco1)C(=O)[C@H](CC(=O)N1CCN(C(=O)c3ccco3)CC1)C2,·,·,·,-0.8%,0.2,2
O=C(COC(=O)CN1CCSC1=O)Nc1ccc(F)cc1Cl,-3.1,11,2,2.3%,0.5,4
Cc1cccc(NC(=O)c2cc(-c3cc(C)ccc3O)n[nH]2)c1,-2.6,-9,-6,4.0%,-1.1,3
C=CCn1c(-c2c[nH]c3ccccc23)n[nH]c1=S,0.6,2,-1,-0.8%,-0.7,2
CCNc1nc(NCC)n2c(SCC(=O)NC34CC5CC(CC(C5)C3)C4)nnc2n1,-1.1,6,24,-1.2%,-0.1,8
COc1ccc(/C(O)=C2/C(=O)C(=O)N(CCCN(C)C)C2c2ccccc2)cc1OC (configuration not stated),-0.6,-5,-13,-0.6%[38.3 µM],-0.3,1
CCCS(=O)(=O)N1CCC(C(=O)N2CCOCC2)CC1,2.0,1,-7,-1.9%,-1.0,?
CCC(=O)Nc1ccc(NC(=O)CSc2nnc(C(C)C)n2C)cc1,-2.5,6,-24,1.6%,-0.3,25
COc1cccc(CN2CCCC(C(=O)c3ccc4c(c3)OCO4)C2)c1OC (configuration not stated),-1.0,-5,-22,1.7%,-0.2,0
Cc1c(C(=O)NCc2ccccc2)c(-c2ccccc2)nn1-c1ccccc1,1.4,2,-2,-3.9%[38.3 µM],2.4,1
CC(=O)c1c(C)nn(CC(O)COc2ccc3c(c2)CCC3)c1C (configuration not stated),-1.6,7,2,·,-0.2,-7

# Three structures out of the list, arranged by formula weight, low to high:
SMILES,D2 ag,TRPML1 inh,D2 PAM,PINK1 expr mod,TRPML1 agonist,Six1-Eya2 inh
C=CCn1c(-c2c[nH]c3ccccc23)n[nH]c1=S,0.6,2,-1,-0.8%,-0.7,2
CCCS(=O)(=O)N1CCC(C(=O)N2CCOCC2)CC1,2.0,1,-7,-1.9%,-1.0,?
O=C(COC(=O)CN1CCSC1=O)Nc1ccc(F)cc1Cl,-3.1,11,2,2.3%,0.5,4

# Following part:
SMILES,D2 ag,TRPML1 inh,D2 PAM,PINK1 expr mod,TRPML1 agonist,Six1-Eya2 inh
CN(CC(=O)Nc1ccccc1C(F)(F)F)C(=O)c1ccccc1Sc1ccccc1C#N,2.6,3,-3,-0.1%,4.2,5
Cc1cc(S(=O)(=O)N2CCCCC2CCNC(=O)C(=O)NCC2CCCO2)ccc1F (configuration not stated),3.1,-16,12,-1.2%,-0.5,3
CC1(Oc2ccc(-n3ccnc3)cc2)CCN(Cc2cccn2-c2nccs2)C1 (configuration not stated),-3.5,·,-5,1.6%,-0.3,-16
O=C(COc1ccc(Cl)cc1Br)NC(=O)NCc1ccccc1,5.3,3,-12,4.4%,2.0,0
CCOc1ccc(NC(=O)CN(C)C(=O)c2sccc2-c2ccccc2)cc1OCC,0.9,-12,-7,-0.5%,0.2,-5
COc1ccccc1C(C)NCC(=O)NC(=O)NCc1ccco1 (configuration not stated),-3.5,4,5,3.7%,-0.4,-8
COC(=O)c1ccc(NC(=O)CSCc2ccccc2C)cc1,0.6,0,-1,-1.7%[38.3 µM],0.1,1
O=c1c2c3c(sc2nnn1Cc1ccc(F)cc1)CCCC3,·,-8,·,-0.2%,-0.5,·

# Record cards, from the list above. Values in the order: D2 ag, TRPML1 inh, D2 PAM, PINK1 expr mod, TRPML1 agonist, Six1-Eya2 inh
# CCOc1ccc(NC(=O)CN(C)C(=O)c2sccc2-c2ccccc2)cc1OCC reads 0.9, -12, -7, -0.5%, 0.2, -5
# Cc1cc(S(=O)(=O)N2CCCCC2CCNC(=O)C(=O)NCC2CCCO2)ccc1F (configuration not stated) reads 3.1, -16, 12, -1.2%, -0.5, 3

# Assay outcomes from PubChem BioAssay.

# Not a hit list; 1% or so of the library scored in one or more.
